# CBX7 inh – CBX7 inhibition, primary AlphaScreen; 66,000 compounds, 1.1% hits; normalised signal (fraction of DMSO) (concentration not given with the values); AlphaScreen His6-CBX7 / biotin-H3K27me3 peptide binding; stronger effect = lower value; AID 1224903; O95931; in the data active = normalised signal below about 0.5;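 note: 100 nL library stock added to about 20 µL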
# Target sequence (O95931 whole entry, looked up): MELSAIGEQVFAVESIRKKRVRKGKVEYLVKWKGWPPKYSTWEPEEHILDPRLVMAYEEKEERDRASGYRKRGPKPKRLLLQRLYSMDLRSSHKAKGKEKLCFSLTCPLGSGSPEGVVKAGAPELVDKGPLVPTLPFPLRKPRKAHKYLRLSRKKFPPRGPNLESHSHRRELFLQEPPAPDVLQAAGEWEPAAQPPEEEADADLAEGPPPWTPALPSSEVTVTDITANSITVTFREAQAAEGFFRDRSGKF
# CBX7 inh z-score – second read-out of CBX7 inh, no call of its own (marks repeat the call); z-score; measured here: z-score of CBX7 signal; some inactives read as strong as hits; reference of the scale not given here;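 same signal on another scale; lower means less binding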
# The depositor's hits bear a star; & = joins results of further samples.
# Results follow in this order: CBX7 inh z-score | CBX7 inh
> CC1(C)Cc2c(cnn2-c2ccc(C(F)(F)F)cc2)-c2nc3ccccc3nc21
    0.053 | 1
> Cc1cccc(CN2CCN(CC(=O)NC3CCCC(C)C3C)C2=O)c1 (stereo not given)
    -1.1 | 0.94
> Cc1cc2cc(CCNC(=O)c3ccc(S(=O)(=O)N4CCCC4)cc3)c(=O)[nH]c2cc1C
    -0.69 | 0.98
> Cc1nc2cc(-c3cccc(F)c3)nn2c(C)c1CCC(=O)NCCN1CCOCC1
    1.2 | 1
> Cc1cc(C)cc(NC(=O)C2CCCN(S(=O)(=O)c3cccnc3)C2)c1 (stereo not given)
    0.051 | 1.1
> COc1ccc(Nc2cc(C)c3ccc(O)cc3n2)cc1
    -1.3 | 0.93
> O=C(Cn1nc(-c2ccc(Cl)cc2)ccc1=O)N1CCOCC1
    2.1 | 1
> Cc1ccc(OCCSc2nc3ccccc3[nH]2)c(C(C)C)c1
    3 | 1.1
> CCOc1ccc2nc(N3CCCC(C(=O)NCc4ccc(F)cc4)C3)sc2c1 (stereo not given)
    1.1 | 1
> Cc1ccc(Sc2cc(C(=O)NCCC(C)C)c3ccccc3n2)cc1
    2.1 | 1.1
> O=C(Nc1ccc(-c2nc3ccccc3[nH]2)cc1)[C@@H](c1ccccc1)N1Cc2ccccc2C1=O
    -5.5 | 0.8
> Cc1ccc(Cl)cc1NC(=O)c1oc2ccc(S(=O)(=O)N(C)C3CCCCC3)cc2c1C
    3.5 | 1.1
> O=C(Nc1ccc(F)cc1)Nc1ccc(Cc2ccncc2)cc1
    -0.54 | 0.96
> CCOc1ccc(-n2cc(C(=O)NCCCOC)c3cc(OC)c(OC)cc3c2=O)cc1
    2.8 | 1.3
> CCN(CC)S(=O)(=O)c1ccc(-c2cn3cc(C)ccc3n2)cc1
    -0.44 | 0.87
> CCc1ccc(-c2csc(NC(=O)CCOc3ccccc3)n2)cc1
    -0.36 | 0.98
> CCOC(=O)C1CCN(C(=O)CN2C(=O)COc3ccc(S(=O)(=O)N4CCCC4)cc32)CC1
    0.36 | 1
> COc1ccc(Cl)cc1NC(=O)c1sc2ncn(Cc3ccccc3Cl)c(=O)c2c1C
    0.83 | 1.1
> NC(=O)c1ccc(-c2ncc(-c3ccccc3)o2)cc1
    -0.65* | 0.42*
> CCN(c1cccc(C)c1)S(=O)(=O)c1ccc2[nH]cc(C(=O)NCCC(C)C)c(=O)c2c1
    1 | 1.1
> COc1cc(C(=O)NCc2nnc(SCC(=O)Nc3cc(C)on3)o2)cc(OC)c1OC
    -15* | 0.051*
> Cc1ccc(-c2noc(CCC(=O)Nc3ccc(Br)cc3C)n2)cc1
    3.2 | 1.3
> Cc1cc(=O)[nH]c(N2CCN(c3cccc(Cl)c3)CC2)n1
    0.063 | 1.1
> O=C(NCCc1nc2ccccc2[nH]1)c1c(F)cccc1F
    0.18 | 1
> Cc1ccc(-n2cc(-c3ccc4c(c3)OCO4)[nH]c2=O)cc1
    -3.8 | 0.84
> Cc1ccc(C)c2[nH]c(=O)c(CCNC(=O)c3ccccc3Br)cc12
    -0.33 | 0.81
> COc1ccc(NC(=O)C2CCN(S(=O)(=O)c3cccc4cccnc34)CC2)cc1OC
    -0.19 | 0.99
> C=CCN1C(=O)c2ccccc2C1C(=O)NCc1cccnc1 (stereo not given)
    0.78 | 1
> COc1cc(NCCCCN2C(=O)c3ccccc3C2=O)c2nccc(C)c2c1
    -0.53 | 0.96
> Cc1ccc(Cl)cc1NC(=O)CN(C)S(=O)(=O)c1ccc2c(c1)n(C)c(=O)c(=O)n2C
    1.6 | 1.2
> Cc1ccc(-c2cc(C(F)(F)F)n3ncc(C(=O)Nc4cc(C)cc(C)c4)c3n2)cc1
    -0.63 | 0.94
> CCCCN(CC)C(=O)Cn1nc(Cc2cccnc2)c2ccccc2c1=O
    0.39 | 1
> O=C(NCc1ccccn1)c1ccc(Cl)c(NC2=NC3CS(=O)(=O)CC3S2)c1 (stereo not given)
    -0.2 | 0.99
> Cc1cc(NC(=O)c2ccc3c(c2)N(C)CCS3)ccc1Br
    -1.1 | 0.93
> Cc1ccn2c(Nc3ccccc3C)c(-c3ccccn3)nc2c1
    -21* | 0.0084*
> Cc1ccc(C(C)C)c(OCC(=O)NCCc2nc3ccccc3[nH]2)c1
    -0.66 | 0.84
> O=C(CSc1nnc(Cc2cc(=O)[nH]c(=O)[nH]2)n1-c1ccccc1)Nc1nc2ccccc2s1
    0.095 | 1
> O=C(O)C1CCCCC1C(=O)N1CCN(c2nc(-c3ccccc3)c3ccccc3n2)CC1 (stereo not given)
    0.55 | 1
> Cc1nccc2[nH]c(=O)c(C(=O)NCCN3CCCC3)cc12
    0.092 | 1
> O=C1CSC(c2cccc(Cl)c2Cl)N1c1ccc(O)cc1 (stereo not given)
    -0.47 | 0.98

# A second format for some results above:
Cc1nccc2[nH]c(=O)c(C(=O)NCCN3CCCC3)cc12
  CBX7 inh z-score: 0.092	CBX7 inh: 1

CCCCN(CC)C(=O)Cn1nc(Cc2cccnc2)c2ccccc2c1=O
  CBX7 inh z-score: 0.39	CBX7 inh: 1

# (cont.)
# Results follow in this order: CBX7 inh z-score | CBX7 inh
> Cc1ccc(Nc2c(-c3ccncc3)nc3ccc(C)cn23)cc1
    -1.9 | 0.88
> COc1ccc(-c2nc(C#N)c(NCCCN3CCOCC3)o2)cc1
    1.5 | 1.1
> CC1=Nc2cc(C(=O)NCc3ccc4c(c3)OCO4)ccc2Sc2c(C)ccc(C)c21
    -3.2 | 0.79
> CC1CCCN(S(=O)(=O)c2ccc3[nH]c(=O)cc(C(=O)NCCc4ccccc4)c3c2)C1 (stereo not given)
    -2.8 | 0.8
> COc1cccc(-c2nn(C)c3sc(C(=O)N4CCN(c5ccccn5)CC4)cc23)c1
    -4.8 | 0.87
> COc1ccc(NC(=O)c2sc3ncn(CC(=O)N4CCCC4)c(=O)c3c2C)c(OC)c1
    0.71 | 1.1
> CC1(C)CC(Cc2ccccc2)(C(CN)CO)CCO1 (stereo not given)
    -0.81 | 0.94
> COC(=O)c1ccccc1NC(=O)c1cn(CC(C)C)c(=O)c2cc(OC)c(OC)cc12
    -3.1 | 0.72
> COc1ccc(OC)c(NC(=O)CNC(=O)Cn2cnc3ccccc3c2=O)c1
    1.3 | 1
> O=C(CC(C(=O)N1CCc2ccccc21)n1ccnc1)NC1CCCC1 (stereo not given)
    -0.13 | 0.99
> CCOc1ccc(NC(=O)CC2C(=O)N(c3ccccc3)C(=O)N2Cc2ccc(OC)cc2)cc1 (stereo not given)
    1.3 | 1
> CCCN1CCN(CCCNC(=O)CN2C(=O)CSc3ncccc32)CC1
    0.11 | 1
> Cc1cc(NC(=O)CSc2nnc(COc3ccc(Cl)cc3)o2)no1
    1.3 | 1.1
> Cc1ccc(NC(=O)C(Cc2ccccc2)NS(=O)(=O)c2ccc3c(c2)CCC(=O)N3)cc1 (stereo not given)
    -0.36 | 0.98
> O=C(CCc1nc(-c2ccccc2F)no1)N1CCN(c2cccc(C(F)(F)F)c2)CC1
    -0.57 | 0.97
> CCc1ccc(-c2ncnn2-c2ccc(Cl)cc2)cc1
    4.9 | 1.2
> CC(O)c1cccc(NC(=O)c2cc3n(n2)C(C(F)(F)F)CC(c2ccc(Cl)cc2)N3)c1 (stereo not given)
    -0.32 | 0.98
> CCCc1cc(C(=O)Nc2c(Cl)cccc2Cl)no1
    -1.2 | 0.95
> Cc1ccc(N2CC(c3nc4ccccc4n3Cc3ccccc3F)CC2=O)c(C)c1 (stereo not given)
    0.74 | 1.1
> COc1ccc(-c2nc3ccc(C(=O)NCCN4CCCCC4)cc3nc2-c2ccc(OC)cc2)cc1
    2.3 | 1.2
> COc1ccc(CN(C)CCc2ccccn2)c(OC)c1
    -2.4 | 0.7
> CC(C)c1ccc2oc(-c3ccc(NC(=O)c4ccccc4Cl)cc3)nc2c1
    0.65 | 1
> Cc1cccc(-n2c(Cc3cc(=O)[nH]c(=O)[nH]3)nnc2SCC(=O)Nc2ccccc2F)c1
    0.37 | 1
> COCc1nc2ccccc2n1CCOc1ccc(Cl)cc1Cl
    2 | 1.1
> O=C(NCc1cccs1)c1cc(-c2ccc(Cl)cc2)on1
    1.1 | 1
> COC(=O)c1c(NC(=O)COc2ccccc2C)sc2c1CCC(C)C2 (stereo not given)
    0.79 | 1
> Cc1cccc(NC(=O)c2ccc(-c3cc(Cl)ccc3Cl)o2)n1
    1 | 1.2
> CC1CCCN(S(=O)(=O)c2ccc3c(c2)CCN3C(=O)C2CCC2)C1 (stereo not given)
    0.15 | 1
> CCOc1ccc(CNC(=O)C2CCN(c3nc4ccc(OCC)cc4s3)CC2)cc1
    1.1 | 1
> N#Cc1c(SCC(N)=O)nc2c(c1-c1cccnc1)CCC2
    0.1 | 1.1

# Reprinted at random: four compounds from above.
# Results follow in this order: CBX7 inh z-score | CBX7 inh
> Cc1cccc(-n2c(Cc3cc(=O)[nH]c(=O)[nH]3)nnc2SCC(=O)Nc2ccccc2F)c1
    0.37 | 1
> O=C(NCc1cccs1)c1cc(-c2ccc(Cl)cc2)on1
    1.1 | 1
> CC(C)c1ccc2oc(-c3ccc(NC(=O)c4ccccc4Cl)cc3)nc2c1
    0.65 | 1
> CCOc1ccc(CNC(=O)C2CCN(c3nc4ccc(OCC)cc4s3)CC2)cc1
    1.1 | 1

# (cont.)
# Results follow in this order: CBX7 inh z-score | CBX7 inh
> CC1CCCCN1C(=O)c1ccc2c(c1)N(Cc1ccc(Cl)cc1)C(=O)c1ccccc1S2=O (stereo not given)
    -2.9 | 0.84
> CCCC(=O)NC(c1ccc(OC)cc1)c1cc(Cl)c2cccnc2c1O (stereo not given)
    -0.79 | 0.78
> COc1ccc(C2C(Oc3ccc(Cl)cc3)C(=O)N2c2cccc(C(F)(F)F)c2)cc1OC (stereo not given)
    -0.69 | 0.93
> COc1cc2c(=O)c(S(=O)(=O)c3ccccc3)cn(Cc3ccccc3C)c2cc1OC
    -1.4 | 0.93
> COC(=O)CNC(c1ccccc1)c1cc(Br)ccc1NC(=O)CN1CCOCC1 (stereo not given)
    -0.25 | 0.94
> CCOC(=O)c1nc(Nc2ccccc2OC)c2ccccc2n1
    0.099 | 1.1
> CCc1cccc(C)c1Nc1c(-c2c[nH]c3ccccc23)nc2cnccn12
    2.2 | 1.1
> Cc1ccc(-c2cc(C(F)F)nc(NCc3ccc(Cl)cc3)n2)cc1
    4.5 | 1.3
> Cc1oc(-c2cccc(Cl)c2)nc1CN1CCCC(C(=O)NCCCN2CCCC2)C1 (stereo not given)
    -0.34 | 0.97
> O=C(NC1CC1)c1ccc2c(c1)N(Cc1ccccc1F)C(=O)c1ccccc1S2(=O)=O
    1.4 | 1
> O=C(CCCN1C(=O)CSc2ncccc21)NC1CC1
    0.31 | 1
> CCOc1ccc(-n2cc(-c3ccccc3)c3c(Nc4ccc(OC)c(OC)c4)ncnc32)cc1
    -4.9 | 0.83
> Cc1ccc2oc(-c3cccc(NC(=O)c4ccc(F)cc4)c3)nc2c1
    1.7 | 1.2
> CCc1ccc(NC(=O)Cn2nc(Cc3ccncc3)c3ccccc3c2=O)cc1
    -0.28 | 0.99
> O=C(O)c1ccccc1NCc1ccc2c(c1)OCO2
    0.82 | 1
> COc1cccc(C2=NOC(C(=O)NC(C)C)C2)c1 (stereo not given)
    -0.54 | 0.96
> Cc1cc(N2CCCCC2)nc2ccc(NC(=O)CCC(=O)N3CCCC(C)C3)cc12 (stereo not given)
    -23* | 0.48*
> CCN(CCCNC(=O)CCn1nc(-c2ccccc2)ccc1=O)c1ccccc1
    -2 | 0.93
> COc1ccc(-c2nnc3n2C2(CCCC2)Cc2cc(OC)c(OC)cc2-3)cc1
    0.27 | 1
> OC(COc1ccc(Br)cc1)Cn1ccnc1 (stereo not given)
    -0.6 | 0.94
> O=C(c1ccc(F)cc1)N1CCN(c2ccc3nnc(-c4ccc(F)cc4)n3n2)CC1
    0.16 | 1
> COc1ccc(NC(=O)CSc2nccn2-c2ccc(F)cc2)cc1
    1.6 | 1.2
> Cc1onc(-c2ccccc2Cl)c1C(=O)Nc1n[nH]c(=S)s1
    0.042 | 1
> Cn1c(=O)c(=O)n(C)c2cc(S(=O)(=O)NC3CCCCCC3)ccc21
    1.7 | 1.2
> CCCCCC(O)(CCN1CCCCC1)c1ccc(OCC)cc1 (stereo not given)
    1.2 | 1
> Cc1cccc(NC(=O)C(C(C)C)N2C(=O)c3ccccc3C2=O)c1 (stereo not given)
    -0.55 | 0.87
> CCc1ccc(CNC(=O)C2CCCN(S(C)(=O)=O)C2)cc1 (stereo not given)
    0.56 | 1
> O=C(CNC(=O)Cn1ccc2ccccc2c1=O)NCC1CCCO1 (stereo not given)
    0.41 | 1
> Cc1ccc(C)c2[nH]c(=O)c(CCNC(=O)C(C)Oc3ccccc3)cc12 (stereo not given)
    0.45 | 1
> Cc1ccc(-n2ncc(C(=O)Nc3ccc(Cl)cc3)c2C2CCNCC2)cc1
    0.85 | 1.1

# By substructure: the compounds so far containing bromine
# Results follow in this order: CBX7 inh z-score | CBX7 inh
> Cc1ccc(-c2noc(CCC(=O)Nc3ccc(Br)cc3C)n2)cc1
    3.2 | 1.3
> Cc1ccc(C)c2[nH]c(=O)c(CCNC(=O)c3ccccc3Br)cc12
    -0.33 | 0.81
> Cc1cc(NC(=O)c2ccc3c(c2)N(C)CCS3)ccc1Br
    -1.1 | 0.93
> COC(=O)CNC(c1ccccc1)c1cc(Br)ccc1NC(=O)CN1CCOCC1 (stereo not given)
    -0.25 | 0.94
> OC(COc1ccc(Br)cc1)Cn1ccnc1 (stereo not given)
    -0.6 | 0.94

# (further entries)
# Results follow in this order: CBX7 inh z-score | CBX7 inh
> COC(=O)C(C)Sc1nnc(Cc2cc(=O)[nH]c(=O)[nH]2)n1-c1cccc(OC)c1 (stereo not given)
    0.24 | 1.1
> Cc1ccc(-c2nc3cc(NCc4ccc5c(c4)OCO5)ccc3o2)cc1
    0.43&3.2 | 1&1.1
> COc1ccc(-c2nnc(NC(=O)C(C)(C)C)s2)cc1OC
    -0.91 | 0.95
> O=C(Nc1ccc(F)c(Cl)c1)C1OC2OC3(CCCCC3)OC2C2OC3(CCCCC3)OC12 (stereo not given)
    -0.81 | 0.94
> CC(NC(=O)c1cc(-c2cccnc2)nc2ccccc12)c1ccccc1 (stereo not given)
    1.1 | 1.2
> O=C(CSc1oc(-c2ccccc2)nc1S(=O)(=O)c1ccc(Cl)cc1)Nc1ccc(F)cc1
    -0.26 | 0.97

# Assay outcomes as filed in PubChem.

# Only part of the results is shown, so the mix of outcomes need not match the whole.
